Screening results from PubChem.
A1 apoptosis 2 = compounds inhibiting A1, read as caspase activation; AID 2465; 24,000 tested, under 10 active; caspase activation, % (no concentration beside the values); MEF A1-2A-BIM cells, caspase-Glo luminescence, 3 h; percent of clofoctol response, DMSO zero; in the data active = caspase activation above about 5.9%;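 note: wells of about 30 µL received 50 nL stock; the first replicate is given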
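Test system – A1-2A-BIM-expressing MEF cells · Input – 2500 cells/well · Medium – RPMI-1640 growth medium with 10% FBS · Compound dosing – 50 nL pinned compound · Timing – 3 h compound exposure at 37 °C · Technique – Caspase-Glo luminescence (DEVD substrate) · Evaluation – Caspase-3/7 activity from luminescence increase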
An asterisk follows results filed as active. The list is partial; rates above refer to the full screens.

SMILES	A1 apoptosis 2
Cc1noc(C)c1NC(=O)Nc1ccc2c(c1)C(=O)N([C@@H](C)CO)C[C@H](C)[C@H](CN(C)S(=O)(=O)c1ccc(F)cc1)OCCCC[C@H](C)O2	-0.2
C[C@@H]1CCCCO[C@@H](CN(C)C(=O)NC2CCCCC2)[C@@H](C)CN([C@@H](C)CO)C(=O)c2cc(NC(=O)Nc3cccc4ccccc34)ccc2O1	-0.4
Cc1noc(C)c1S(=O)(=O)N(C)C[C@H]1OCCCC[C@@H](C)Oc2ccc(NC(=O)NC3CCCCC3)cc2C(=O)N([C@@H](C)CO)C[C@@H]1C	0.7
C[C@H]1CN([C@@H](C)CO)C(=O)c2cccc(NC(=O)c3ccncc3)c2O[C@@H]1CN(C)Cc1ccc2c(c1)OCO2	-0.2
C[C@@H]1CN([C@@H](C)CO)C(=O)c2cc(NS(=O)(=O)c3ccc(F)cc3)ccc2O[C@@H](C)CCCCO[C@@H]1CN(C)C(=O)Nc1ccccc1	-0.1
COc1ccc(S(=O)(=O)N(C)C[C@@H]2OCCCC[C@@H](C)Oc3ccc(NS(=O)(=O)c4ccccc4)cc3C(=O)N([C@@H](C)CO)C[C@@H]2C)cc1	1.5
C[C@@H]1CN([C@@H](C)CO)C(=O)c2cc(N(C)C)ccc2O[C@@H]1CN(C)S(=O)(=O)c1ccccc1	-0.8
C[C@H](CO)N1C[C@H](C)[C@@H](CN(C)Cc2ccc(Oc3ccccc3)cc2)Oc2ccc(NS(=O)(=O)c3ccc(F)cc3)cc2CC1=O	0.2
C[C@@H]1CN([C@H](C)CO)C(=O)CCCn2nncc2CO[C@H]1CN(C)C(=O)c1ccc(N2CCN(C)CC2)cc1	1.6
C[C@H]1CN([C@@H](C)CO)C(=O)Cc2cc(NC(=O)C3CC3)ccc2O[C@@H]1CN(C)C(=O)Nc1ccc2c(c1)OCO2	-0.8
Cc1noc(C)c1NC(=O)N(C)C[C@@H]1Oc2c(NC(=O)c3ccncc3)cccc2C(=O)N([C@@H](C)CO)C[C@H]1C	0.8
CC(C)NC(=O)Nc1ccc2c(c1)C(=O)N([C@@H](C)CO)C[C@@H](C)[C@@H](CN(C)S(C)(=O)=O)O2	1.1
COc1ccc(S(=O)(=O)Nc2cccc3c2O[C@@H](CN(C)Cc2ccc(C(F)(F)F)cc2)[C@H](C)CN([C@@H](C)CO)C3=O)cc1	-0.2
C[C@@H]1CN([C@H](C)CO)C(=O)c2cc(NC(=O)Nc3ccc(F)cc3)ccc2O[C@H]1CN(C)S(=O)(=O)c1cccs1	0.1
Cc1ccc(S(=O)(=O)N(C)C[C@@H]2Oc3ccc(NC(=O)NC(C)C)cc3C(=O)N([C@@H](C)CO)C[C@@H]2C)cc1	-0.5
C[C@H](CO)N1C[C@H](C)[C@H](CN(C)C(=O)Nc2cccc3ccccc23)OCCCC[C@H](C)Oc2ccc(NC(=O)Nc3ccc(F)cc3)cc2C1=O	0.2
C[C@H]1CN([C@@H](C)CO)C(=O)c2cccc(NC(=O)C3CC3)c2O[C@@H]1CN(C)S(=O)(=O)c1ccccc1	-0.8
COc1ccc(NC(=O)N(C)C[C@@H]2Oc3ccc(NC(=O)NC(C)C)cc3C(=O)N([C@@H](C)CO)C[C@H]2C)cc1	-1.7
CNC[C@@H]1Oc2ccc(NC(=O)CCC(F)(F)F)cc2C(=O)N([C@@H](C)CO)C[C@H]1C	0.2
C[C@H](CO)N1C[C@H](C)[C@@H](CN(C)C(=O)NC2CCCCC2)Oc2ccc(NC(=O)CCC(F)(F)F)cc2CC1=O	-0.1
C[C@H](CO)N1C[C@H](C)[C@@H](CN(C)Cc2ccc(C(=O)O)cc2)OCCCC[C@H](C)Oc2ccc(NC(=O)Nc3ccc(F)cc3)cc2C1=O	-0.6
C[C@H]1CN([C@@H](C)CO)C(=O)c2cc(NS(=O)(=O)c3cn(C)cn3)ccc2O[C@H]1CN(C)C(=O)Nc1ccc(C(F)(F)F)cc1	0.3
C[C@H](CO)N1C[C@H](C)[C@@H](CN(C)Cc2ccccc2)Oc2ccc(NC(=O)CCCCCC(=O)Nc3ccccc3N)cc2C1=O	-0.1
C[C@H]1CN([C@@H](C)CO)C(=O)Cc2cc(NC(=O)Nc3ccc(F)cc3)ccc2O[C@@H]1CN(C)C(=O)Nc1ccccc1	-1.1
COC(=O)CCCCCCC(=O)N/N=C/[C@@H](O)[C@@H](O)[C@H](O)[C@H](O)CO	0.0
Cc1noc(C)c1NC(=O)N(C)C[C@H]1Oc2c(NC(=O)c3ccncc3)cccc2C(=O)N([C@@H](C)CO)C[C@H]1C	0.3
C[C@@H]1CN([C@H](C)CO)C(=O)Cc2cc(NC(=O)Cn3cnnn3)ccc2O[C@@H]1CN(C)Cc1ccccc1	-1.6
C[C@@H]1CN([C@H](C)CO)C(=O)c2cc(NC(=O)Nc3ccc(F)cc3)ccc2O[C@H]1CN(C)C(=O)Nc1ccc(F)cc1	0.9
CC(C)(C)[C@@H]1C=C(C(=O)NCc2ccccc2)O[C@H](OCc2ccc(CO)cc2)C1	-0.6
Cc1ccc(S(=O)(=O)Nc2ccc3c(c2)C(=O)N([C@H](C)CO)C[C@H](C)[C@H](CN(C)C(=O)NC2CCCCC2)OCCCC[C@@H](C)O3)cc1	-0.9
Cc1noc(C)c1NC(=O)Nc1ccc2c(c1)C(=O)N([C@H](C)CO)C[C@H](C)[C@@H](CN(C)Cc1ccc3c(c1)OCO3)O2	0.5
C[C@H](CO)N1C[C@H](C)[C@@H](CN(C)CC2CC2)Oc2ccc(NS(=O)(=O)c3ccc(Cl)cc3)cc2CC1=O	0.4
C[C@@H]1CN([C@@H](C)CO)C(=O)c2cc(NS(=O)(=O)c3cn(C)cn3)ccc2O[C@@H](C)CCCCO[C@@H]1CN(C)S(=O)(=O)c1cn(C)cn1	-1.3
C[C@@H]1CN([C@@H](C)CO)C(=O)Cc2cc(NC(=O)CCCCCC(=O)Nc3ccccc3N)ccc2O[C@@H]1CN(C)S(C)(=O)=O	1.6
C[C@H](CO)N1C[C@H](C)[C@H](CN(C)CC2CC2)Oc2ccc(NC(=O)Nc3ccc4c(c3)OCO4)cc2CC1=O	0.2
C[C@@H]1CCCCO[C@H](CN(C)C)[C@H](C)CN([C@@H](C)CO)C(=O)c2cc(NC(=O)Nc3ccc(F)cc3)ccc2O1	-0.2
Cc1noc(C)c1NC(=O)N(C)C[C@H]1Oc2ccc(NC(=O)CCCCCC(=O)Nc3ccccc3N)cc2C(=O)N([C@@H](C)CO)C[C@@H]1C	0.2
C[C@H](CO)N1C[C@H](C)[C@@H](CN(C)C(=O)Nc2cccc3ccccc23)Oc2c(NC(=O)c3nc4ccccc4s3)cccc2C1=O	1.3
C[C@H](CO)N1C[C@H](C)[C@H](CN(C)Cc2ccc(C(=O)O)cc2)Oc2ccc(NC(=O)Cc3ccccc3)cc2CC1=O	-0.3
CNC[C@@H]1Oc2ccc(NC(=O)Nc3ccc(OC)cc3)cc2CC(=O)N([C@H](C)CO)C[C@@H]1C	-1.4
COc1ccc(CN(C)C[C@H]2Oc3ccc(NS(=O)(=O)c4c(C)noc4C)cc3C(=O)N([C@@H](C)CO)C[C@@H]2C)cc1	1.2
C[C@@H]1CN([C@H](C)CO)C(=O)Cc2cc(NC(=O)Nc3cccc4ccccc34)ccc2O[C@@H]1CN(C)C(=O)Nc1ccc(F)cc1	0.6
C[C@H](CO)N1C[C@H](C)[C@@H](CN(C)Cc2ccc(C(=O)Nc3ccccc3N)cc2)Oc2ccc(NC(=O)Cc3cn(C)c4ccccc34)cc2CC1=O	-1.4
C[C@@H]1CCCCO[C@@H](CN(C)C)[C@H](C)CN([C@H](C)CO)C(=O)c2cc(NS(=O)(=O)c3cccs3)ccc2O1	0.6
C[C@@H]1CN([C@@H](C)CO)C(=O)c2cccc(NS(=O)(=O)c3cn(C)cn3)c2O[C@@H]1CN(C)S(C)(=O)=O	0.3
Cc1ccc(S(=O)(=O)N(C)C[C@H]2OCCCC[C@@H](C)Oc3ccc(NC(=O)Nc4c(C)noc4C)cc3C(=O)N([C@H](C)CO)C[C@@H]2C)cc1	-0.5
CC(C)NC(=O)Nc1ccc2c(c1)C(=O)N([C@H](C)CO)C[C@@H](C)[C@@H](CN(C)S(C)(=O)=O)O2	1.5
CC(C)NC(=O)N(C)C[C@H]1Oc2c(NS(=O)(=O)c3ccccc3)cccc2C(=O)N([C@@H](C)CO)C[C@@H]1C	0.7
O=C(N/N=C/c1ccc(C(F)(F)F)cc1)c1ccccc1O	-6.0
C[C@@H]1CCCCO[C@H](CN(C)C)[C@@H](C)CN([C@@H](C)CO)C(=O)c2cc(NC(=O)NC3CCCCC3)ccc2O1	-0.1
Cc1ccc(S(=O)(=O)N(C)C[C@H]2Oc3ccc(NS(=O)(=O)c4ccccc4)cc3C(=O)N([C@H](C)CO)C[C@H]2C)cc1	-0.6
C[C@H]1CCCCO[C@H](CN(C)S(=O)(=O)c2cccs2)[C@@H](C)CN([C@@H](C)CO)C(=O)c2cc(NC(=O)CCC(F)(F)F)ccc2O1	1.3
C[C@@H]1CCCCO[C@H](CN(C)Cc2ccccc2)[C@@H](C)CN([C@H](C)CO)C(=O)c2cc(NC(=O)c3ccccc3)ccc2O1	-0.8
COc1ccc(S(=O)(=O)Nc2ccc3c(c2)CC(=O)N([C@H](C)CO)C[C@H](C)[C@@H](CN(C)S(=O)(=O)c2cccs2)O3)cc1	0.0
C[C@@H]1CCCCO[C@@H](CN(C)S(=O)(=O)c2ccc(F)cc2)[C@H](C)CN([C@H](C)CO)C(=O)c2cc(NC(=O)Nc3ccc4c(c3)OCO4)ccc2O1	0.0
CC(C)NC(=O)Nc1ccc2c(c1)C(=O)N([C@H](C)CO)C[C@@H](C)[C@@H](CN(C)Cc1ccc(C(=O)O)cc1)OCCCC[C@H](C)O2	-0.5
Cc1ccc(S(=O)(=O)Nc2cccc3c2O[C@@H](CN(C)C(=O)NC2CCCCC2)[C@@H](C)CN([C@H](C)CO)C3=O)cc1	1.8
CC(C)(C)c1ccc(N2C(=O)CS(=O)(=O)C2c2ccccc2)cc1 (stereo unspecified)	-0.3
C[C@H]1CN([C@@H](C)CO)C(=O)c2cc(NC(=O)Nc3ccccc3)ccc2O[C@@H]1CN(C)C(=O)NC1CCCCC1	-0.7
COc1ccc(NC(=O)Nc2ccc3c(c2)CC(=O)N([C@@H](C)CO)C[C@H](C)[C@H](CN(C)Cc2ccc(C(F)(F)F)cc2)O3)cc1	-1.1

Looked up by structure from above, four records:
SMILES	A1 apoptosis 2
O=C(N/N=C/c1ccc(C(F)(F)F)cc1)c1ccccc1O	-6.0
C[C@@H]1CCCCO[C@H](CN(C)Cc2ccccc2)[C@@H](C)CN([C@H](C)CO)C(=O)c2cc(NC(=O)c3ccccc3)ccc2O1	-0.8
COc1ccc(CN(C)C[C@H]2Oc3ccc(NS(=O)(=O)c4c(C)noc4C)cc3C(=O)N([C@@H](C)CO)C[C@@H]2C)cc1	1.2
COc1ccc(S(=O)(=O)Nc2ccc3c(c2)CC(=O)N([C@H](C)CO)C[C@H](C)[C@@H](CN(C)S(=O)(=O)c2cccs2)O3)cc1	0.0

The listing continues.
SMILES	A1 apoptosis 2
Cc1noc(C)c1S(=O)(=O)Nc1ccc2c(c1)C(=O)N([C@H](C)CO)C[C@H](C)[C@H](CN(C)C(=O)CCCN(C)C)OCCCC[C@@H](C)O2	-0.2
C[C@H](CO)N1C[C@H](C)[C@@H](CN(C)Cc2ccc(Cl)c(Cl)c2)Oc2ccc(NC(=O)CCCCCC(=O)Nc3ccccc3N)cc2CC1=O	-0.2
C[C@H]1CN([C@@H](C)CO)C(=O)c2cccc(NC(=O)Nc3ccc4c(c3)OCO4)c2O[C@@H]1CN(C)C	-1.7
COCCOC(=O)N1C(=O)[C@@]2(c3cc(C#CC4(O)CCCCCC4)ccc31)[C@H](c1ccc(O)cc1)N1[C@H](c3ccccc3)[C@H](c3ccccc3)OC(=O)[C@H]1[C@@H]2C(N)=O	0.5
COc1ccc(S(=O)(=O)Nc2ccc3c(c2)CC(=O)N([C@H](C)CO)C[C@H](C)[C@@H](CN(C)Cc2ccc(Cl)c(Cl)c2)O3)cc1	-0.9
C[C@@H]1CN([C@@H](C)CO)C(=O)c2cc(NC(=O)Nc3ccc(F)cc3)ccc2O[C@H]1CN(C)C(=O)Nc1ccc(F)cc1	0.2
C[C@H](CO)N1C[C@H](C)[C@H](CN(C)S(C)(=O)=O)Oc2ccc(NC(=O)CCN3CCOCC3)cc2C1=O	-0.1
CC(/C=C/C(=O)NO)=C\c1ccccc1OC[C@@H]1[C@H]2C[C@H]3c4[nH]c5ccccc5c4CCN3C[C@@H]2CC[C@@H]1O	1.5
C[C@H](CO)N1C[C@H](C)[C@H](CN(C)C(=O)Nc2ccc3c(c2)OCO3)Oc2ncc(C#Cc3ccc(C(F)(F)F)cc3)cc2C1=O	0.5
CNC[C@@H]1Oc2ccc(NC(=O)c3ccncc3)cc2CC(=O)N([C@@H](C)CO)C[C@@H]1C	-1.4

Molecules listed so far that contain a COOH group:
SMILES	A1 apoptosis 2
C[C@H](CO)N1C[C@H](C)[C@@H](CN(C)Cc2ccc(C(=O)O)cc2)OCCCC[C@H](C)Oc2ccc(NC(=O)Nc3ccc(F)cc3)cc2C1=O	-0.6
C[C@H](CO)N1C[C@H](C)[C@H](CN(C)Cc2ccc(C(=O)O)cc2)Oc2ccc(NC(=O)Cc3ccccc3)cc2CC1=O	-0.3
CC(C)NC(=O)Nc1ccc2c(c1)C(=O)N([C@H](C)CO)C[C@@H](C)[C@@H](CN(C)Cc1ccc(C(=O)O)cc1)OCCCC[C@H](C)O2	-0.5
